High-throughput results: PubChem BioAssay, several laboratories
PrP UTR inh: inhibition of PrP 5' UTR reporter expression. 340,000 compounds, 0.35% hits. inhibition, % (test concentration not listed). cell-based PrP 5' UTR mRNA reporter, plate reader. AID 488862, 2010;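 active means every replicate at 50% or more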;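 further: 0 = median of the neutral control wells; tested in H4 reporter cells; numbers are from one replicate; inactives centre near -14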
ugtP null kill: growth inhibition of ugtP-null S. aureus, primary screen, RN4220 ugtP deletion, OD600. 16 h; some inactives read as strong as hits. growth inhibition, % (test concentration not listed). 330,000 compounds, 0.54% hits. AID 1259309, 2017;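 active means z-score under -3 and OD600 up to 0.15 on both plates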;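 further: plate controls were untreated wells for no effect and antibiotic for full effect; wells of about 80 µL received 100 nL stock; the first replicate is given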
BJeLR lethal: MLPCN primary cell-based screen for lethality selective to Ras in HRASV12 cells; BJeLR (HRASV12) viability, CellTiter-Glo ATP luminescence, 48 h; reference of the scale not given here; inhibition, % (no concentration beside the values); 300,000 compounds, 0.17% hits;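 active means replicate mean above 50%; inconclusive means above 50% but judged a plate artefact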;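 further: 50 nL library stock added to about 25 µL; numbers are from one replicate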
Autofluor counter: compound fluorescence in toxin protease inhibitor counterscreen. AID 624483. compound autofluorescence counterscreen, microsphere flow cytometry; active compounds read high. fluorescence intensity (test concentration not listed). 360,000 compounds, 3.1% hits;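 active means at least 3 SD above the mean of all compounds, about 16000 in these data; inconclusive means too few beads counted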;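 further: 100 nL of 1 mM stock went into each well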
RN4220 kill: growth inhibition of S. aureus RN4220, primary screen, OD600; 16 h; inhibition, % (no concentration beside the values); AID 1259311, 2017; 330,000 compounds, 0.33% hits;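 active means z-score of -3 or lower and OD600 up to 0.18 on both plates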;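 further: plate controls were untreated cells for no effect and reference antibiotic for full effect; stock transfer was 100 nL into about 80 µL; one replicate is shown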
Mtb hypoxia inh: PubChem AID 1159583 | fluorescence inhibition, % (test concentration not listed) | M. tuberculosis hypoxia-regulated fluorescent reporter, fluorescence | 300,000 compounds, 0.1% hits;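 active means 35 to 45% if threefold the growth effect, above 45% if 1.5-fold the growth effect; inactive means the rest, general growth blockers included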;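 further: wells of about 50 µL received 100 nL stock; 0% = vehicle wells and 100% = reference inhibitor wells; whole bacteria with a GFP reporter of the hypoxia response; strong numbers were not always called active; many hits fall short of the cut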
Mtb hypoxia inh growth: recorded beside Mtb hypoxia inh, whose call it bears; growth inhibition, %; measured here: M. tuberculosis growth (absorbance);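 0% = vehicle and 100% = reference antibiotic; read after six days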
An asterisk follows results filed as active; ? = inconclusive; · = no result given.

compound,ugtP null kill,RN4220 kill,Mtb hypoxia inh,BJeLR lethal,PrP UTR inh,Autofluor counter,Mtb hypoxia inh growth
CC1CCCC/C1=N\NC(=S)Nc1ccccc1 (stereo not given),·,·,·,0.1,-34.3,3006,·
CSc1nn(-c2ccc(C(=O)OCC(=O)NC(=O)NC(C)C)cc2)c(=S)s1,4.7,6.3,8.9,0.5,-29.5,1972,0.9
N#Cc1ccccc1S(=O)(=O)N1CCN(C(=O)c2cc3c(s2)CCC3)CC1,16.2,4.8,10.2,·,-20.2,?,1.9
COc1cccc(CNC(=O)C2CCCN(c3nc4ccccc4o3)C2)c1 (stereo not given),0.9,1.2,-4.7,-0.4,5.6,10594,4.0
O=C1NCCCc2nonc21,-3.4,-1.5,7.2,0.2,-12.7,8473,7.0
COc1ccc(C2(C(=O)NCc3ccco3)CCCC2)cc1OC,-2.7,-0.5,-2.3,4.5,4.6,4179,3.6
CCCCC(O)CN1CCC(c2ccccc2)CC1 (stereo not given),11.8,8.5,·,0.5,-12.9,2519,·
Cc1nnc(NC(=O)c2cccc(S(=O)(=O)N3CCN(C)CC3)c2)s1,6.4,0.2,11.3,1.5,-15.8,5919,-2.3
CCCCN=C1CC(C)(C)CC(=O)/C1=C(\O)CCCN1C(=O)c2ccccc2C1=O,-68.9,15.6,7.8,·,·,·,9.4
Cc1ccccc1-n1c(O)c(C=NCCN2CCOCC2)c(=O)[nH]c1=O,11.4,2.4,9.7,1.6,-7.3,2522,0.0
CCO/C=C1/C(=O)N(C(C)=O)c2ccccc21,-7.7,3.2,-5.3,-1.7,-6.2,22792*,-10.2
CCOC(=O)c1sc(=S)n(-c2ccccc2)c1N,3.8,7.9,6.2,2.5,-7.6,2359,9.5
CCc1nnc(SCC(=O)Nc2nc(C)c(C(=O)N(C)C)s2)n1CC,3.1,1.2,8.0,-2.7,-16.2,6476,-2.5
Cc1nc2sc(C(N)=O)c(N)c2c2c1CCCC2,25.3,4.5,12.6,7.7,9.7,3580,13.5
COCCSc1ccccc1C(=O)N1CCOCC1,4.9,-2.9,16.1,-6.7,-19.7,15272,-2.9
O=C(CNS(=O)(=O)c1ccc2ccccc2c1)OCc1nnc(-c2ccccc2)o1,-6.2,-3.2,·,-1.2,-10.8,4888,·
CCCOc1ccc(C=NNC(=O)C(=O)Nc2ccccn2)cc1,-4.7,0.5,0.3,·,·,·,-1.5
Cc1ccc(/C=N/NC(=O)CSc2nc3ccccc3[nH]2)o1,·,·,·,4.6,-20.9,3869,·
CC1CCC/C(=C\Nc2ccc(C(=O)O)c(O)c2)C1=O (stereo not given),1.3,3.6,·,-6.5,-50.9,4803,·
CC(C)c1c(C(=O)NN=Cc2ccc(-c3ccccc3)cc2)nnn1-c1nonc1N,12.0,7.2,-6.6,·,·,·,2.9
O=C(NC1CCCCC1)N1C[C@H]2C[C@@H](C1)c1cccc(=O)n1C2,8.1,6.1,-4.0,0.9,-6.8,3502,-7.8
Cc1ccc(NC(=O)CSc2ncn[nH]2)c([N+](=O)[O-])c1,2.1,3.4,6.1,·,-31.0,3862,-7.3
Cc1nc2cc(NS(=O)(=O)c3cccc4cccnc34)ccc2s1,7.4,-0.4,7.1,-2.0,-11.3,3649,9.0
CN(C)/C=C/C(=O)c1ccncc1,10.3,4.4,5.7,4.2,-55.1,4261,-2.3
CCNC(=S)N(Cc1cc2c(C)ccc(C)c2[nH]c1=O)C1CCCC1,12.4,-0.4,2.6,-2.4,5.8,3322,9.4
CC(C)Cc1nnc(NC(=O)CCC(=O)N2CCN(c3ccccc3)CC2)s1,-0.8,-5.5,1.9,5.6,-7.7,4460,-0.4
CC(Sc1nnc(NC2CC2)s1)C(=O)Nc1ccc(S(N)(=O)=O)cc1 (stereo not given),0.2,2.0,6.1,·,-14.4,3885,5.2
CCCCn1c(O)c(C(C)=NCC2CCCO2)c(=O)[nH]c1=O (stereo not given),6.3,2.6,12.2,-6.3,-30.5,9184,7.6
COC(=O)CN(c1ccc(F)cc1)S(=O)(=O)c1ccc2c(c1)OCCO2,-6.2,-1.4,-3.4,2.3,-7.7,8202,2.7
CSc1ccc(CCNC(=O)CN2C(=O)CCSc3ccccc32)cc1,8.8,-1.7,-4.5,3.8,-10.9,4254,-3.0
c1ccc(CCNc2nc(-c3ccncc3)nc3ccccc23)cc1,-14.1,1.3,10.9,16.0,-25.5,·,16.4
CCOC(=O)C1=C(C)OC(N)=C(C#N)C1c1ccoc1 (stereo not given),-1.8,-0.8,2.1,4.1,-15.0,16971*,6.7
O=C(Nc1ccc2nc(N3CCOCC3)sc2c1)c1ccccc1,2.4,7.8,15.6,·,-17.8,5111,6.2
CCCc1nc2ccccc2c(C(=O)OCC(=O)Nc2c(C)n(C)n(-c3ccccc3)c2=O)c1CC,20.8,5.8,12.0,-0.7,-17.6,2155,6.1
Cc1cc(C)c(NC(=O)/C(=C/c2ccco2)c2ccccc2)c(C)c1,-4.4,0.2,·,-3.6,-26.8,3552,·
COc1ccccc1Oc1cc(C#N)c(C#N)cc1-n1nnc2ccccc21,43.8,2.2,1.3,4.9,8.0,22329*,4.2
CCOc1ccccc1C1CC(=O)Nc2cc(OC)c(OC)c(OC)c21 (stereo not given),7.3,2.0,·,4.5,-25.4,2820,·
COc1ccc(OC)c(C(=O)CSc2nc3ccccc3n2CC(=O)NC(C)(C)C)c1,-1.9,4.7,6.4,·,-21.6,3373,0.7
O=c1[nH]cnc(O)c1C(c1ccc([N+](=O)[O-])cc1)c1c(O)nc[nH]c1=O,1.1,4.1,-4.9,-3.8,-0.6,3809,-7.9
CC(=NNC(=S)Nc1ccccc1C)c1cc2ccccc2o1,6.7,10.4,11.9,·,·,·,7.3

3 structures already listed, arranged by molar mass, rising.
compound,ugtP null kill,RN4220 kill,Mtb hypoxia inh,BJeLR lethal,PrP UTR inh,Autofluor counter,Mtb hypoxia inh growth
Cc1nc2cc(NS(=O)(=O)c3cccc4cccnc34)ccc2s1,7.4,-0.4,7.1,-2.0,-11.3,3649,9.0
CCOc1ccccc1C1CC(=O)Nc2cc(OC)c(OC)c(OC)c21 (stereo not given),7.3,2.0,·,4.5,-25.4,2820,·
Cc1ccccc1-n1c(O)c(C=NCCN2CCOCC2)c(=O)[nH]c1=O,11.4,2.4,9.7,1.6,-7.3,2522,0.0

(next part)
compound,ugtP null kill,RN4220 kill,Mtb hypoxia inh,BJeLR lethal,PrP UTR inh,Autofluor counter,Mtb hypoxia inh growth
Cc1cc(-c2ccccc2)c2nncn2n1,-1.4,5.6,9.7,6.7,-45.3,10105,9.7
COc1ccc(-c2nnc(SCC(=O)c3ccc[nH]3)n2-c2ccccc2)cc1,-8.8,3.4,6.4,4.7,-26.5,2919,5.3
Cc1sc2ncnc(SCC(=O)Nc3nc(-c4ccc(F)c(F)c4)cs3)c2c1C,·,·,·,9.0,-5.8,3772,·
Cc1ccc(CNC(=O)C2CC(=O)N(C3CCCCCCC3)C2)cc1 (stereo not given),-0.4,4.8,5.7,-5.5,-7.2,2802,4.9
COCCn1c(C)cc(C(=O)CSc2ncnc3sc4c(c23)CCC4)c1C,0.2,5.5,6.8,-1.7,-24.5,4286,7.6
COc1ccc(C(CNC(=O)CCNS(=O)(=O)c2ccc(Br)cc2)N2CCOCC2)cc1 (stereo not given),2.2,2.7,8.7,·,-14.2,3754,11.2
Nc1nnnn1/N=C/C=C/c1ccccc1,·,·,·,3.8,-32.4,4198,·
CC(C)NC(=O)c1onc(CSc2ccc(F)c(F)c2)c1C(=O)O,4.9,15.0,-10.1,-2.9,-23.3,3280,4.9
COP(=O)(OC)C(NC(=O)Nc1ccccc1)c1ccccc1 (stereo not given),-4.5,0.7,10.5,-1.4,-16.6,4097,7.1
COc1ccc(S(=O)(=O)N2CCCCC2)cc1NC(=O)c1ccc(=O)[nH]c1,4.3,3.8,-5.2,0.0,-0.1,2561,2.2
COc1ccccc1NC(=S)NC(NC(=O)CC(C)C)C(Cl)(Cl)Cl (stereo not given),-8.7,2.0,12.5,3.0,-23.6,4003,5.9
CCCCC[C@H](O)/C=C/[C@@H]1[C@@H](C/C=C\CCCC(=O)O)[C@H]2CO[C@@H]1C2,·,·,·,7.9,-17.7,4315,·
Cc1cc(C)n2nc(C(=O)N3CCOCC3)nc2n1,-3.0,-1.5,-1.5,8.4,-8.3,8807,2.2
Cc1nn(-c2ccccc2)c(C)c1/C=N/NC(=O)CSc1nnc(SCc2ccccc2Cl)s1,·,·,·,-2.4,-38.6,1963,·
CSCCC(NC(=O)c1ccco1)C(=O)OCC(=O)Nc1sccc1C#N (stereo not given),1.8,1.4,-85.7,-6.9,·,·,-22.1
CC1(C)NC(=O)N(CC(O)COc2ccccc2[N+](=O)[O-])C1=O (stereo not given),-3.6,5.3,0.5,1.7,-35.5,4561,-0.6
CC(CN1CCOCC1)OC(=O)C(C)(c1ccccc1)c1ccccc1 (stereo not given),0.7,13.1,·,-4.1,-17.0,3483,·
CCOC(=O)Cc1csc(NC(=O)c2sc3nc4cc(C)ccc4cc3c2N)n1,3.8,14.8,·,6.4,-21.1,2245,·
Cn1c(=O)n(CC(=O)Nc2ccccc2)c2ccccc21,1.9,4.4,12.4,7.9,-25.5,2880,10.0
CC(C)O/N=C1\C(=O)N(c2ccccc2)c2ccccc21,·,·,·,-4.4,-23.4,2783,·
CC(C)(C)c1ccc(-c2nn(CCC#N)cc2/C=N/O)cc1,·,·,·,-3.6,-10.2,3365,·
CCOC(=O)C1CCCN(C(=O)c2sc3nc(-c4ccc(F)cc4)cn3c2C)C1 (stereo not given),-10.0,1.9,2.2,-7.9,-25.4,9520,-0.5
CCOc1ccc(NC(=O)Cc2ccccc2)c([N+](=O)[O-])c1,16.4,4.9,11.5,-9.8,-20.4,2563,7.0
Cc1onc(-c2ccccc2)c1C(=O)OCCOc1ccccc1F,1.0,9.9,·,4.4,-28.1,3539,·
COc1ccc(NC(=O)C(Cc2ccccc2)NC(=O)c2ccco2)cc1OC (stereo not given),3.6,6.4,11.7,·,-30.3,11032,7.2
NC(=O)c1ccc(NCC2CCCO2)c([N+](=O)[O-])c1 (stereo not given),-0.6,-0.7,15.8,-2.1,-6.4,2833,3.6
Cc1ccc(C2=NOC(=O)/C2=C\c2ccccc2)cc1,1.5,3.6,5.2,-8.1,-6.2,4144,5.9
Cc1ccc(S(=O)(=O)N2CCCCC2)cc1NC(=O)CSc1nncn1-c1ccccc1,-3.3,-0.4,-4.8,-5.5,5.4,2018,-1.3
CC(C)(C)OC(=O)NCCCCCNC(=O)c1[nH]cnc1C(=O)Nc1ccon1,4.2,9.7,10.2,·,-11.0,3921,4.9
CCC(=NNc1nncc2ccccc12)c1ccc(F)cc1,18.3,-0.3,-1.0,·,·,·,10.6
